NPYLR7 ag = mosquito NPYLR7 agonism; AID 1259423; HEK293T NPYLR7/Galpha15, GCaMP6s calcium fluorescence; activation, % at 10 µM; actives 0.15% (n = 270,000); in the data active = activation above about 40%;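 note: 0% = vehicle and 100% = reference agonist at the receptor; some compounds past the cut are filed as inactive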
NPYLR7 ag max-min = further read-out of NPYLR7 ag, marked with its call; activation, %; measured here: Max-Min RFU normalised activation; some inactives read as strong as hits;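 span of the calcium signal over five minutes; 0% = vehicle and 100% = native peptide agonist; compound fluorescence can raise it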
* hit, by the source's call; & = joins results of further samples. The list is partial; rates above refer to the full screens.

SMILES	NPYLR7 ag	NPYLR7 ag max-min
COc1ccc(-n2c(SCCCCC(=O)N3CCN(C(=O)c4ccc(Br)cc4)C(C)C3)nnc2-c2ccccc2)cc1 (stereo unspecified)	-4	9
CN(C)C(=O)C(NS(=O)(=O)NCc1ccccc1)c1ccccc1 (stereo unspecified)	3	14
Cc1nnc(NC(=O)Cc2ccc(C(F)(F)F)cc2)s1	0	0
O=C(c1cc2n(n1)CCN(Cc1c(Cl)cccc1Cl)C2=O)N1CCc2ccccc2C1	12	4
CN1CC2(CCCN(Cc3noc(-c4ccccc4)n3)CC2)OC1=O (stereo unspecified)	9	4
CC(C)(C)c1ccc(OCC(=O)Nc2cc(-c3ccccc3)nn2-c2ccccc2Cl)cc1	25	23
Cc1ccc(Cl)c(NC(=O)CN2CCN(Cc3ccc4c(c3)CCO4)CC2)c1Cl	4	9
CC(C)n1cnnc1CNC(=O)c1cc2ccccc2[nH]1	9	5
COc1cccc(OC)c1CNC1COc2c(cccc2OC)C1 (stereo unspecified)	-1	-2
COc1cccc(C2CC(c3ccc(C)cc3C)=NN2C(=O)CN2CCOCC2)c1 (stereo unspecified)	24	18
Cc1cc(C)c(NC(=O)CN(c2cc(Cl)ccc2Cl)S(C)(=O)=O)c(C)c1	9	7
Cn1c(=N)n(CC(=O)c2cc(C(C)(C)C)c(O)c(C(C)(C)C)c2)c2ccccc21	9	10
Cc1ccc(CN(CCc2ccccc2)C(=O)CN(Cc2ccc(C(F)(F)F)cc2)C2CC2)o1	18	24
CC(C)c1ccc(NC2CCCN(C(=O)c3nccc4ccccc34)C2)cc1 (stereo unspecified)	8	-1
CCOC(=O)C1(C/C=C/c2ccccc2)CCCNC1 (stereo unspecified)	6	5
CC1CCCC(C)N1C(=O)CN1C(=O)NC2(CCCCCC2)C1=O (stereo unspecified)	-1	11
CCCc1nc(C)cc(N2CCCC(O)(CO)CC2)n1 (stereo unspecified)	12	1
Cc1ccc(C(=O)NCCSc2ncc(-c3ccc(C)cc3)[nH]2)cc1	5	4
O=C1CN(c2ccccc2S(=O)(=O)C(F)(F)F)CCN1	-4	-4
Cc1ccc(CNCc2cccnc2Oc2ccccc2C)s1	17	7

4 entries from above, field by field:
SMILES: O=C(c1cc2n(n1)CCN(Cc1c(Cl)cccc1Cl)C2=O)N1CCc2ccccc2C1
- NPYLR7 ag = 12
- NPYLR7 ag max-min = 4

SMILES: Cc1ccc(CNCc2cccnc2Oc2ccccc2C)s1
- NPYLR7 ag = 17
- NPYLR7 ag max-min = 7

SMILES: CN1CC2(CCCN(Cc3noc(-c4ccccc4)n3)CC2)OC1=O (stereo unspecified)
- NPYLR7 ag = 9
- NPYLR7 ag max-min = 4

SMILES: CC(C)c1ccc(NC2CCCN(C(=O)c3nccc4ccccc34)C2)cc1 (stereo unspecified)
- NPYLR7 ag = 8
- NPYLR7 ag max-min = -1

(more compounds)
SMILES	NPYLR7 ag	NPYLR7 ag max-min
CC1NC(=O)N(C)C2NC(=O)N(C)C(C)C12 (stereo unspecified)	-4	-9
CN1CC2(CCCN(S(=O)(=O)c3cc(F)c(F)cc3F)CC2)OC1=O (stereo unspecified)	16	3
CCC(CC)(C(=O)N1CCCN(C(N)=O)CC1)c1ccc(Cl)cc1	1&-20	2&-21
Cc1cc(N2CCN(C(=O)c3cccc(Br)c3)CC2)nc(-c2ccc(C(F)(F)F)cc2)n1	-2	11
CCOC(=O)c1c(C)n(-c2ccc(C)cc2)c2ccc(O)cc12	-5	-9
CCc1cc(CN(C)Cc2c(CO)cnc(C)c2O)on1	7	5
O=C1NC[C@H]2CCN(C(=O)c3ccccc3)CC[C@H]12	26	36
Cc1nonc1C(=O)NC1CCCc2nc(-c3ccccc3)ncc21 (stereo unspecified)	2	-1
Cc1c(C(=O)N2CCN(C(=O)c3ccc([N+](=O)[O-])cc3)CC2)cc(-c2ccccc2)n1-c1ccccc1Cl	-3	-2
COC(=O)c1cc(Cl)c(N2CCN(C(=O)c3ccoc3)CC2)nc1C	11	8
COc1cccc(CSc2nnc(CNC(=O)Nc3cccc(OC)c3)n2-c2ccc(Cl)cc2Cl)c1	0	11
CN(C)CCN1C(=O)NC(Cc2cccc(F)c2)(C2CCN(C(=O)/C=C/c3cccs3)CC2)C1=O (stereo unspecified)	33	16
Cc1ccc(NC(=O)C2(C)CCN2Cc2ccc3ccccc3c2)cc1O (stereo unspecified)	9	0
CCN(CC(=O)N(Cc1cccn1Cc1ccccc1Cl)C1CCCCC1)S(=O)(=O)/C=C/c1ccccc1	-2	7
CC(C)n1ccnc1CN1CCC(C(=O)N2CCOCC2)CC1	-1	-9
Cc1noc(C)c1CNC1CCN(C(=O)c2cccs2)CC1	7	5
COc1cc(OC)nc(-c2cccc(NC(C)=O)c2)n1	-3	-6
COCC(=O)N(CC(=O)N(Cc1cccn1Cc1ccccc1Cl)CC(C)C)C(C)C	-9	-5
O=C(CSC1=NCCS1)N(C1CCCCC1)C1CCS(=O)(=O)C1 (stereo unspecified)	6	3
c1cn2ccnc2c(NCc2ccc3c(c2)CCO3)n1	3	1
Cc1nc2sccn2c(=O)c1NC(=O)C1c2ccccc2Oc2ccccc21	11	0
CCc1nnc(CN(C)Cc2cccc(C(=O)Nc3cccc(C)c3)c2)o1	7	4
CC(Cn1cncn1)NC(=O)c1cc(COc2cccc(C(F)(F)F)c2)on1 (stereo unspecified)	15	12
O=C(NC1=NCCS1)c1cccnc1Nc1cccc(C(F)(F)F)c1	0	0
COCCOCC(=O)N1CC(=O)N2CC(C)c3ccccc3C2C1 (stereo unspecified)	7	12
N#CC1(c2ccccc2)CCN(C(=O)C2CCCCC2C(=O)Nc2ccccc2Nc2ccccc2)CC1 (stereo unspecified)	-1	-7
CCOC(=O)N1CCN(CC(=O)Nc2ccc3nc(C(F)(F)F)[nH]c3c2)CC1	3	2
CC(C)(C)c1cnc(CNS(=O)(=O)Cc2cccc(C#N)c2)o1	1	-2
CC1=NN(c2ncc(Cl)cc2Cl)C(=O)C1CCC#N (stereo unspecified)	5	3
COc1ccccc1N1CCN(c2ncccc2CNC(=O)c2ccoc2)CC1	5	-2
COc1ccc(-n2ccnc2CN2CCCC(N(C)CCc3ccccc3)C2)cc1 (stereo unspecified)	18	18
CC=CCn1c(SCc2ccccc2Cl)nc2c1c(=O)[nH]c(=O)n2C	15	6
CC1(Cc2ccc(C(F)(F)F)nc2)C(=O)Nc2cc(-c3ccccc3Cl)ccc21 (stereo unspecified)	4	4
COC(=O)C(C)Sc1nnc(-c2cccc(OC)c2)n1-c1ccc(OC)cc1 (stereo unspecified)	19	8
COc1ccccc1CN1CCCn2cccc2C1c1ccccc1Cl (stereo unspecified)	-8	13
CCC(C(=O)N(CCOC)Cc1cc(NC(=O)C2CCCC2)ccc1N(C)C)c1ccccc1 (stereo unspecified)	4	7
COCCOC(=O)C1=C(C)N(CCc2ccccc2)C(=S)NC1c1ccc(C(=O)OC)cc1 (stereo unspecified)	-8	-13
CCc1ccc2oc(-c3ccc(NC(=O)c4ccc([N+](=O)[O-])c(C)c4)cc3)nc2c1	-9	-12
CCC(C)N(Cc1cccc(C(F)(F)F)c1)Cc1nc(C(=O)NCc2ccc3c(c2)OCO3)co1 (stereo unspecified)	18	44
CCC(C(=O)NCc1ccco1)n1c(=O)n(-c2cccc(F)c2)c(=O)c2ccccc21 (stereo unspecified)	-17	-6

Complete entries from above. Screens in order: NPYLR7 ag, NPYLR7 ag max-min
COCCOCC(=O)N1CC(=O)N2CC(C)c3ccccc3C2C1 (stereo unspecified) reads 7, 12
CC(C)n1cnnc1CNC(=O)c1cc2ccccc2[nH]1 reads 9, 5
CCc1ccc2oc(-c3ccc(NC(=O)c4ccc([N+](=O)[O-])c(C)c4)cc3)nc2c1 reads -9, -12
Cc1ccc(CN(CCc2ccccc2)C(=O)CN(Cc2ccc(C(F)(F)F)cc2)C2CC2)o1 reads 18, 24

More entries
SMILES	NPYLR7 ag	NPYLR7 ag max-min
Cc1cc(C)cc(CC(=O)N2CCC2(C)C(=O)NS(=O)(=O)c2ccc(C(C)(C)C)cc2)c1 (stereo unspecified)	4	3
COc1ccc(-c2csc(C(C)(O)c3ccc(F)c(F)c3)n2)cn1 (stereo unspecified)	9	2
C=C[n+]1ccn(-c2nc3ccccc3nc2NS(=O)(=O)c2ccc(C)cc2)c1	14	21
CCOCN(C(=O)Cn1cnc2cc(C)c(C)cc21)c1c(C)cccc1CC	1	-3
CC(NC(=O)C(C)n1c(=O)n(Cc2ccccc2)c(=O)c2ccccc21)c1ccccc1 (stereo unspecified)	-14	-13
COc1ccccc1-n1ncc2c(C(C)C)nnc(SCC(=O)NCc3ccco3)c21	-12	-18
C1=CC2(CCN(Cc3cc4n(n3)CCNC4)CC2)c2ccccc21	17	15
O=C(O)C1C2CCC(C2)C1C(=O)Nc1nc(-c2cccs2)cs1 (stereo unspecified)	13	11
COc1ccc2nc(-c3ccc(C)c(NC(=O)c4ccccc4C)c3)cn2n1	-6	-11
O=C1CCCN1CCCNc1nc(NCc2ccccc2)nc2ccsc12	41	29
COc1ccc(S(=O)(=O)N2CCCC(C)C2)cc1N1CCN(S(=O)(=O)c2ccc(Br)cc2)CC1 (stereo unspecified)	16	9
COc1ccc(Cl)cc1NC(=O)CCC1CCCN(C(=O)CN2CCCCC2=O)C1 (stereo unspecified)	7	7
O=C(NCc1ccccc1Cl)C1CCCN1C(=O)C1CCCCC1 (stereo unspecified)	2	-1
Cc1cc(C)n(C2CCN(Cc3ccc(C#CC(C)(C)O)s3)C2)n1 (stereo unspecified)	8	5
Cc1c(Br)c(=O)n(C(C)(C)C)c(=O)n1Cc1ccccc1	1	-2
O=c1c(C=NCCN2CCNCC2)c(-c2ccccc2)[nH]n1-c1ccc([N+](=O)[O-])cc1	4	0
N=C(c1ccncc1)N1CCCCC1	-6	-14
CCCc1ccc(S(=O)(=O)NCCc2nncn2CC)cc1	10	7
CC(C)OCCNc1nc2nonc2nc1NC1CCCC1	-6	-9
O=C(Nc1cccc(-c2ccc(F)cc2)c1)C1CCCN(C(=O)c2cscn2)C1 (stereo unspecified)	3	0
Cc1ccc(C)c(S(=O)(=O)N2CCN(C(=O)c3c(C)nn(-c4ccc(F)cc4)c3C)CC2)c1	0	10
Cc1cnc(NC(=O)c2cccc(OC(F)F)c2)s1	3	-1
CC(C)OC(=O)c1ccc(NC2=NS(=O)(=O)c3ccccc32)cc1	3	-2
CCOCCCN(CC(=O)N(Cc1ccccc1)Cc1sccc1C)C(=O)c1ccc(Cl)c(Cl)c1	-4	-4
O=C1CCN(CC(=O)Nc2ccc(-c3ccccc3)cc2)CC1	8	8
CNC(=O)[C@@H]1C[C@@H](N)CN1C(=O)c1cc(N2CCCCC2)ccc1Cl	16	12
C#CCOCC(O)CN(Cc1ccc(F)cc1)Cc1ccc(OC)c(OC)c1 (stereo unspecified)	0	15
O=C(c1csc2c1CCCC2)N1CCOc2ccc(CN3CCN(c4ccccn4)CC3)cc2C1	6	3
COc1cccc(-n2cc(C(C)NC(=O)Cc3cc(C)no3)cn2)c1 (stereo unspecified)	7	2
Cc1ccc(NC(=O)Nc2ccc(N3CCCC3)c(C(=O)NC3CC3)c2)c(C)c1	-3	-2
Cc1cccc(S(=O)(=O)N2CCN(c3ccc(-n4ccc(C)n4)nn3)CC2)c1	-5	-8
Cc1cc(C(=O)N(CCCN(C)C)c2nc3c(F)cc(F)cc3s2)on1	1	3
COc1ccccc1C1=NN=C(N2CCOCC2)SC1	-1	-1
Cc1ccccc1-c1cnnc(NCCCOc2cccnc2)n1	0	-3
COc1cccc(C(=O)N2CCN(C(c3ccccc3)c3ccc(F)cc3)CC2)c1 (stereo unspecified)	6	5
Cc1nn(C)c(C)c1C(=O)N1CCC(=Cc2ccccc2)CC1	4	1
Cn1c(CSc2nc3ccccc3n2C)nc2ccccc21	2	1
CCc1nc2n(n1)C(=O)C(C(c1ccc([N+](=O)[O-])cc1)N1CCCCC1)S2 (stereo unspecified)	-2	34
NC(=O)CN1CCOc2cc(Br)c(Cl)cc21	-5	-7
Cc1cc(-c2cccc(Cl)c2)ccc1NC(=O)CNC(N)=O	3	1
CC(SC1=C(C#N)C(C)(C)C(C#N)C(=O)N1)C(=O)N(C)c1ccccc1 (stereo unspecified)	1	0
COc1ccc(Cl)cc1-n1ccc2c(cnc3nc(SC)nn32)c1=O	2	3
Cc1nc(-c2ccccc2)oc1C(=O)Nc1cc(Cl)ccc1F	-4	-6
CN1c2ccccc2C(=O)N(Cc2ccco2)C1c1cccc(O)c1 (stereo unspecified)	-3	0
O=C(O)c1cccc(CC2CCN(C(=O)c3cccc4nccnc34)C2)c1 (stereo unspecified)	3	2
Cc1[nH]c(=O)n(C)c(=O)c1CCC(=O)Nc1ccccc1C(N)=O	-7	-11
COc1cc(C2CN(C(=O)CC(C)(C)C)CC2C(=O)NCC(C)C)cc(OC)c1OC (stereo unspecified)	7	2
O=C(Nc1ccc(S(=O)(=O)NC2=NCCC2)cc1)c1cc(Cl)cc(Cl)c1	0	14
COc1ccc(-c2nn(-c3ccccc3)cc2CN2CCN(CCC(N)=O)CC2)c(F)c1	14	6
CCCN(Cc1cccn1Cc1ccc(C(=O)NCCN2CCCCC2)o1)C(=O)c1ccccc1C	25	20

Compound activity (PubChem BioAssay)
